ClpP mod: qHTS Assay for Activators of ClpP. purified B. subtilis ClpP, FRET peptide cleavage, 20 min. Potency, µM (top dose mostly 57.5 µM), for inactives: top-dose activity change, negative = active. 340,000 compounds, 1.9% hits. AID 651965, 2013; active = well fitted falling curve with a large enough effect; inconclusive = small, poorly fitted or top-dose-only effect; inactive = no such curve, though single readings can be large or run the other way; also: potency is read from the fitted curve at half-maximal effect; the source files actives as falling curves though it sought activators and does not explain the sign; nearly all actives have a fitted effect of over 65% in size; many hits overshoot -100%
Target sequence (P80244 whole entry, looked up): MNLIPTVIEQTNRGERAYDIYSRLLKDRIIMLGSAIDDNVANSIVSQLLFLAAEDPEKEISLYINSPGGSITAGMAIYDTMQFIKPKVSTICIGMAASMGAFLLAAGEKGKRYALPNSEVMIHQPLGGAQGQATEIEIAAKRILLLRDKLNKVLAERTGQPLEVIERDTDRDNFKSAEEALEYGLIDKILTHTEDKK
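FRET quenching reversal measured ClpP activation: 10 microg/mL B. subtilis ClpP at pH 8 with the FRET-FV decapeptide, read at 430 nm after 320 nm excitation. The 20-min minus 0-min signal was scaled between DMSO/no-enzyme wells and ADEP (5.8 microM final).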
TRPML1 blocker: human mucolipin-1 channel inhibition. TRPML1-inducible cells, Ca2+ dye fluorescence, FDSS; active compounds read low; inhibition of EC80 agonist-evoked calcium signal. Q9GZU1. activity change, negative = inhibition, % (concentration not given with the values). AID 624415. 390,000 compounds, 0.02% hits; in the data active means activity change below about -50%; inconclusive means about -30% to -50%; inactive means above about -30%;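 also: stimulus is agonist 54-4 at its EC80 concentration; % is scaled to controls: 0 for no effect and ±100 for the full control effect; the text of the record puts the active cut at -80%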
Target sequence (Q9GZU1 whole entry, looked up): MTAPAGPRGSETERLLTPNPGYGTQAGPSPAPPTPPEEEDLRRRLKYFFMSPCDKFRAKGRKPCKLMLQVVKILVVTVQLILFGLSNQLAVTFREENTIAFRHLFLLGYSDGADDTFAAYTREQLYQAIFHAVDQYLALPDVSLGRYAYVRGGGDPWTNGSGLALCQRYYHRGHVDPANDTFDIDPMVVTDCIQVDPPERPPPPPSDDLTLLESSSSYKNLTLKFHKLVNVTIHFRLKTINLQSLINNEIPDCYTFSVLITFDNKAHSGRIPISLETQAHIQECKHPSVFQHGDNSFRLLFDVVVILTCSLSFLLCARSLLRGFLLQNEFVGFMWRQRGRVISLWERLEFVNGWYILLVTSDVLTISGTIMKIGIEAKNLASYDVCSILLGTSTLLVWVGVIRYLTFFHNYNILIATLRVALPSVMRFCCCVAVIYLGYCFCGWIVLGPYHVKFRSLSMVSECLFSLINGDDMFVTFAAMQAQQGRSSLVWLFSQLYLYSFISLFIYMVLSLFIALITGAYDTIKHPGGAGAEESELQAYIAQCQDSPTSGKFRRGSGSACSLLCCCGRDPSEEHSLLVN
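Calcium fluorescence in TRPML1-DL cells induced overnight with Tet: a 110 s read after compound pin addition, then a 110 s antagonist read after challenge with 54-4 at 4 uM final (EC80).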
* = called active by the depositor; ? = inconclusive; & = joins results of further samples. A portion of the library; the hit share may differ from the screen's.

SMILES	ClpP mod	TRPML1 blocker
CCc1ccc(-c2[nH]nc3nc(-c4cc(OC)ccc4OC)cc(C(=O)O)c23)cc1	-6.3%	7.9
COc1ccccc1-c1cc2nc(C)c(CCC(=O)Nc3ccc(Br)c(C)c3)c(C)n2n1	3.6%	2.2
CC1=C(C(=O)Nc2ccccc2C)C(c2cccnc2)n2nc(SCc3ccccc3F)nc2N1 (stereo not drawn)	2.3%	1.0
COc1ccc(-c2noc(N3CCC(C(=O)N4CCN(c5ccccc5F)CC4)CC3)n2)cc1	0.8%	-7.7
Oc1c(C(c2ccccc2)N2CCN(c3ccccc3)CC2)sc2nc(-c3ccco3)nn12 (stereo not drawn)	0.5%	-1.3
Cc1ccc(N2CC(NC(=O)c3ccc4c(c3)OCO4)CC2=O)cc1 (stereo not drawn)	-23.1%	-14.7
Cc1ccc(NC(=O)c2cc3c([nH]c2=O)CC(C)(C)CC3=O)c(C)c1	-0.5%	11.6
C=Cc1ccc(Cn2c(=O)n(CC3CCC(C(=O)NC(C)C)CC3)c(=O)c3sccc32)cc1 (stereo not drawn)	-3.4%	-4.4
CC(=O)c1ccc(NC(=O)CSc2nc(-c3ccccc3C)nc3c2c(=O)n(C)c(=O)n3C)cc1	2.2%	-11.6
CC(NC(=O)C1CCN(c2nc3ccccc3nc2C(F)(F)F)CC1)c1ccccc1 (stereo not drawn)	-1.4%	-6.1
N#Cc1c[nH]n2c(NC3CCCC3)c(-c3ccc(Cl)cc3)nc12	0.4%	2.8
Cc1cccc(Nc2ncnc3onc(-c4ccc(Cl)cc4)c23)c1C	-4.8%	-13.8
Cc1c(Cl)cccc1-n1nc(C)c2c(C)cc(=O)n(CC(=O)NCc3ccccc3)c21	-2.8%	1.7
Cc1ccc(S(=O)(=O)N2CCC(c3nnc(-c4cccc(C)c4)o3)CC2)cc1	-0.9%	-14.1
COc1ccc(C(=O)N(Cc2ccco2)Cc2ccc(C)o2)cc1	0.9%	32.1
CC(=O)N1CCCc2cc(S(=O)(=O)NCc3ccccc3Cl)ccc21	1.2%	-6.4
Cc1cc(S(=O)(=O)NCC(c2ccco2)S(=O)(=O)c2ccccc2)ccc1F (stereo not drawn)	1.1%	4.4
Cc1cc(Cl)ccc1NC(=O)C1CCN(S(=O)(=O)c2ccc3[nH]c(=O)ccc3c2)CC1	-8.2%	-6.2
CCOc1ccc(-n2c(SCC(=O)c3ccccc3)nc3c([nH]c4ccccc43)c2=O)cc1	-5.2%	4.1
COc1ccc2c(c1)sc1ncc(C(=O)NCc3cccc(Cl)c3)c(=O)n12	?	7.5
COc1ccc2nc(NC(=O)c3nc(S(=O)(=O)Cc4ccccc4F)ncc3Cl)sc2c1	1.1%	-6.6
CCOC(=O)C1=CCN(S(=O)(=O)c2ccccc2Br)C1c1ccc(F)cc1 (stereo not drawn)	-0.1%	-3.2
CS(=O)(=O)c1oc(-c2ccc(F)cc2)nc1S(=O)(=O)c1ccc(Cl)cc1	-12.0%	6.2
CCOc1ccc(NS(=O)(=O)c2ccc3[nH]c4c(c3c2)CCCC4)cc1	-3.2%	-4.6
CCC(Cn1nnc2ccccc2c1=O)NC(=O)Nc1cc(Cl)ccc1OC (stereo not drawn)	-1.8%	-8.9

Next structures:
SMILES	ClpP mod	TRPML1 blocker
COc1ccc(NC(=O)c2ccc3c(c2)nnn3C2CCCC2)cc1Cl	7.4%	15.0
COc1ccc2c(c1)c1c(c(=O)n(-c3ccc(C)cc3)c(=O)n1CC(=O)c1ccc(Cl)cc1)n2C	-13.9%	2.2
O=C(C1CCN(S(=O)(=O)c2cccc3nonc23)CC1)N1CCN(c2ccccc2)CC1	1.1%	39.3
COC(=O)c1c(NC(=O)COc2ccc(C)cc2Br)sc2c1CCCC2	0.1%	-8.9
CCOc1cccc2sc(N(Cc3cccnc3)C(=O)c3ccc(C#N)cc3)nc12	1.0%	17.6
O=C(NC1(C(F)(F)F)C(=O)Nc2c1c(=O)[nH]c(=O)n2CCc1ccccc1)c1ccc(Cl)cc1Cl (stereo not drawn)	0.8%	11.4
COc1ccc(Cn2ccc3nc(C)c(C(=O)Nc4ccc(F)cc4)cc3c2=O)cc1	-10.4%	-26.2
COc1ccc(NC(=O)c2c(NC(=O)c3ccncc3)sc3c2CCC(C(C)(C)C)C3)cc1 (stereo not drawn)	-0.2%	67.0
CCc1ccccc1NC(=O)N1CCc2c([nH]c3ccccc23)C1c1ccc(C)cc1 (stereo not drawn)	-2.1%	20.5
COc1ccc(-c2nc(CSc3nc4ncccc4[nH]3)c(C)o2)cc1OC	-12.3%	7.8
O=C(Nc1ccccc1C(F)(F)F)n1ncc2cc(Cl)ccc21	-2.1%	-11.5
COc1ccc(NC(=O)c2cc(C)nc3c2c(C)nn3-c2cccc(Cl)c2C)c(OC)c1	-3.9%	-0.8
COc1ccc(N2C(=O)CCSC23C(=O)N(Cc2ccc(F)cc2)c2ccccc23)cc1Cl (stereo not drawn)	1.3%	30.5
COc1ccc(-c2cn3nc(N4CCC(C(=O)Nc5cc(Cl)ccc5OC)CC4)sc3n2)cc1	0.1%	25.1
Cc1ccc(NC(=O)Cn2nnc(C(=O)NCCc3ccccc3)c2N)cc1C	1.3%	17.7
CCOC(=O)C1CCN(C(=O)Cn2ncc3c4ccccc4n(Cc4ccc(F)cc4)c3c2=O)CC1	4.6%	24.4
COc1ccc(N(CC(=O)N2CCN(c3cccc(OC)c3)CC2)S(=O)(=O)c2c(C)noc2C)cc1	-3.5%	18.2
O=C(Nc1ccccc1)C1CCN(S(=O)(=O)c2ccc3c(c2)CCCN3C(=O)C2CCC2)CC1	0.0%	-10.8
CCOc1ccc(C(=O)Nc2ccc3nc(SCc4ccccc4)sc3c2)cc1	-2.6%	-17.9
Cc1cccc(N2CCN(S(=O)(=O)c3ccc4c(c3)C(C(C)C)C(=O)N4)CC2)c1C (stereo not drawn)	-0.7%	1.7
Cc1ccc(-c2nc3cc(C)c(Br)c(C)n3c2CC(C)(C)C)cc1	-4.1%	-9.5
Cc1ccc2c(c1)c(=O)c(C(=O)c1ccncc1)cn2CC(=O)Nc1ccccc1Cl	-8.6%	-7.0
CCOC(=O)Cn1c(=O)oc2cc(S(=O)(=O)N3CCN(c4cccc(C)c4C)CC3)ccc21	-2.6%	21.0
CNC(=O)c1sc2ncccc2c1-n1cccc1	0.5%	17.3
CCOc1ccc(-c2cc(C(=O)NCc3ccc(C)cc3)c3ccccc3n2)cc1	?	4.1

Additional structures:
SMILES	ClpP mod	TRPML1 blocker
Cc1ccc(C)c(N2CCN(C(=O)c3ccc(CS(=O)(=O)c4ccc(Br)cc4)o3)CC2)c1	0.0%	19.5
CCCC(=O)Nc1cc(C)c(O)c(-c2nc3ncccc3o2)c1	0.2%	-2.8
Cc1ccc(Nc2nc3ccccc3nc2-n2nc(C)cc2C)c(Cl)c1	-5.4%	10.7
Cc1nn(S(=O)(=O)c2ccc(F)cc2)c(C)c1S(=O)(=O)N1CCC(C)CC1	0.8%	-10.7
O=C(Cn1ncc2c3ccccc3n(Cc3cccc(Cl)c3)c2c1=O)NC1CCCCCC1	1.0%	-11.3
CCOC(=O)Cn1c(=O)n(-c2ccccc2OC)c2nc(-c3ccccc3C)nc(C(N)=O)c21	-8.5%	23.0
CC(=O)Nc1ccc(S(=O)(=O)NC2(C(F)(F)F)C(=O)Nc3c2c(=O)[nH]c(=O)n3-c2ccc(C)c(C)c2)cc1 (stereo not drawn)	0.9%	23.0
COc1cccc(NC(=O)Cn2c(=O)n(-c3cccc(OC)c3)c(=O)c3c4c(sc32)CCCC4)c1	0.3%	11.1
Cc1ccc(C(C)C)c(OCC(=O)Nc2c(C(=O)c3ccccc3)oc3ccccc23)c1	-6.5%	3.0
COc1ccc(NC(=O)Cn2c(=O)n(-c3ccc(C)c(C)c3)c(=O)c3c4c(sc32)CCCCC4)cc1Cl	0.9%	-16.5
CCN(CC)C(=O)c1sc2c(c1C)c(=O)n(-c1ccc(C)c(C)c1)c(=O)n2CC(=O)Nc1ccc(OC)cc1OC	0.9%	19.9
CCCOc1ccc(-c2cccc(NS(=O)(=O)c3cccs3)c2)nn1	-1.7%	?
CCc1ccc(C2=C(C)C(N3CCC(C(=O)NCc4ccc(C)o4)CC3)=NS2(=O)=O)cc1	-0.2%	17.0
Cc1ccc2c(=O)c(C(=O)c3ccc(Cl)cc3)cn(CC(=O)NC3CCCCC3)c2n1	-0.1%	3.9
CC(=O)c1ccc(NC(=O)CSc2nc(=O)n(Cc3ccncc3)c3c2CCC3)cc1	-4.4%	-9.1
CCCCNC(=O)CN1C(=O)c2c(c3ccccc3n2C)C1c1ccc(OC)cc1 (stereo not drawn)	31.6µM*	28.4
Cc1ccc(NC(=O)CSc2cn(CC(=O)N3CCCCCC3)c3ccccc23)cc1	-3.1%	-7.1
CCn1cc(C(=O)NCc2ccc(Cl)cc2)c(=O)c2cc(S(=O)(=O)N3CCc4ccccc4C3)ccc21	-14.7%	-1.5
O=C(Nc1ccc(F)cc1)Nc1nnc(SCC(=O)N2CCCCC2)s1	0.1%	6.8
COC(=O)c1ccc(CSc2nc3c(c(=O)[nH]2)CCC3)cc1	1.0%&2.9%	-13.1&-19.7
Cc1cc(Cl)ccc1NS(=O)(=O)c1cc2[nH]c(=O)c(=O)[nH]c2cc1C	?	-23.7
CCN(c1ccccc1)S(=O)(=O)c1ccc(NC(=O)c2nc(SC(C)C)ncc2Cl)cc1	-14.3%	-3.1
CCNC(=O)C1(C)CCN(C(=O)c2ccccc2OC(F)(F)F)C1 (stereo not drawn)	1.6%	2.2
CCCC(=O)N1CCc2cc(OC)c(OC)cc2C1COc1ccc2c(C)cc(=O)oc2c1 (stereo not drawn)	-4.6%	-2.7
COc1ccc(C2=CC(c3ccccc3Cl)n3nc(-c4ccc(Cl)cc4)nc3N2)cc1 (stereo not drawn)	-22.6%	-1.8

Arranged by count of non-hydrogen atoms (rising): part of the list above
SMILES	ClpP mod	TRPML1 blocker
COC(=O)c1ccc(CSc2nc3c(c(=O)[nH]2)CCC3)cc1	1.0%&2.9%	-13.1&-19.7
CCNC(=O)C1(C)CCN(C(=O)c2ccccc2OC(F)(F)F)C1 (stereo not drawn)	1.6%	2.2
Cc1nn(S(=O)(=O)c2ccc(F)cc2)c(C)c1S(=O)(=O)N1CCC(C)CC1	0.8%	-10.7
Cc1ccc2c(=O)c(C(=O)c3ccc(Cl)cc3)cn(CC(=O)NC3CCCCC3)c2n1	-0.1%	3.9
CCc1ccc(C2=C(C)C(N3CCC(C(=O)NCc4ccc(C)o4)CC3)=NS2(=O)=O)cc1	-0.2%	17.0
CCN(CC)C(=O)c1sc2c(c1C)c(=O)n(-c1ccc(C)c(C)c1)c(=O)n2CC(=O)Nc1ccc(OC)cc1OC	0.9%	19.9

(continued)
SMILES	ClpP mod	TRPML1 blocker
CC(C)(C)OC(=O)N1CCC(c2c(C(=O)NCc3ccccn3)cnn2-c2ccccc2)CC1	-1.0%	2.2
Cc1ccc(C)c(NS(=O)(=O)c2cc3c4c(c2)C(C)C(=O)N4CCC3)c1 (stereo not drawn)	0.4%	20.0
Cc1ccc(CNC(=O)C2CCC(CNS(=O)(=O)c3ccc4c(c3)CCCC(=O)N4)CC2)cc1 (stereo not drawn)	-0.5%	10.7
CCOC(=O)C1CCN(c2nc3c(S(=O)(=O)c4ccccc4)nnn3c3ccsc23)CC1	-87.6%	-3.2
CC(=O)N1CCCc2cc(S(=O)(=O)N3CCCC(C(=O)Nc4ccc(C)c(F)c4)C3)ccc21 (stereo not drawn)	-3.2%	7.6
COc1ccc(N2CCN(CCCNC(=O)c3cnn(-c4ccc(C)cc4)c3-n3cccc3)CC2)cc1	-1.2%	9.7
NC(=O)c1cccc(-c2coc3c(C(=O)NCc4ccccc4)cccc23)c1	-15.9%	22.8
COc1ccc(CC(=O)N2CCc3cc(OC)c(OC)cc3C2COc2ccc3c(C)cc(=O)oc3c2)cc1OC (stereo not drawn)	-4.1%	5.3
CCOc1ccc(CNC(=O)C2CCCN(S(=O)(=O)N(CC)c3ccc(OCC)cc3)C2)cc1 (stereo not drawn)	-2.4%	-10.6
CCn1cc2nc(SCc3ccccc3Cl)n(Cc3ccc(OC)cc3)c(=O)c2n1	-3.2%	-4.9
CCOC(=O)C1CCCN(C(=O)c2nn(-c3ccc(OC)cc3)c(=O)c3c2c2ccccc2n3C)C1 (stereo not drawn)	-7.1%	-5.4
CCN(C(=O)c1cn(-c2cccc(OC)c2)c(=O)c2ccccc12)c1ccccc1C	-12.8%	-12.1
O=S(=O)(c1ccccc1)c1nc(-c2ccc(F)cc2)oc1NCc1ccccc1	?	51.6
O=C(NCc1ccccc1)C(=O)NCC(c1cccs1)S(=O)(=O)c1cccs1 (stereo not drawn)	-1.7%	2.5
CCOc1ccc(CCNC(=O)CN2C(=O)COc3ccc(S(=O)(=O)N4CCC(C)CC4)cc32)cc1	1.0%	-13.3
CCn1ccc2cc(S(=O)(=O)N3CCC(C(=O)NCCc4ccc(C)cc4)CC3)ccc21	-6.2%	-9.8
Cc1ccc(CN2CCSc3ccc(C(=O)NCCc4ccccc4)cc32)cc1	-27.1%	-28.1
CCOc1ccc(CCNC(=O)c2cn(C)c3ccc(S(=O)(=O)N4CCCCCC4)cc3c2=O)cc1OCC	-0.3%	4.2

Compound profiles, from the list above. Order of values: ClpP mod, TRPML1 blocker
Cc1ccc(CN2CCSc3ccc(C(=O)NCCc4ccccc4)cc32)cc1 is listed with -27.1%, -28.1
CCOC(=O)C1=CCN(S(=O)(=O)c2ccccc2Br)C1c1ccc(F)cc1 (stereo not drawn) is listed with -0.1%, -3.2
